VDR inh – Inhibitors of the vitamin D receptor (VDR): qHTS | 400,000 compounds, 0.93% hits | VDR-SRC2-3 peptide fluorescence polarization, 2 h | Vitamin D3 receptor (Homo sapiens), P11473 | Potency, µM, for inactives: max response, negative = inhibition, actives largely listed as inhibitors; active = well fitted inhibition curve with a large enough effect; inconclusive = small, poorly fitted or top-dose-only effect, or another doubt; inactive = no such curve, though single readings can be large or run the other way; also: series mostly up to about 120 µM
Target sequence (P11473 whole entry, looked up): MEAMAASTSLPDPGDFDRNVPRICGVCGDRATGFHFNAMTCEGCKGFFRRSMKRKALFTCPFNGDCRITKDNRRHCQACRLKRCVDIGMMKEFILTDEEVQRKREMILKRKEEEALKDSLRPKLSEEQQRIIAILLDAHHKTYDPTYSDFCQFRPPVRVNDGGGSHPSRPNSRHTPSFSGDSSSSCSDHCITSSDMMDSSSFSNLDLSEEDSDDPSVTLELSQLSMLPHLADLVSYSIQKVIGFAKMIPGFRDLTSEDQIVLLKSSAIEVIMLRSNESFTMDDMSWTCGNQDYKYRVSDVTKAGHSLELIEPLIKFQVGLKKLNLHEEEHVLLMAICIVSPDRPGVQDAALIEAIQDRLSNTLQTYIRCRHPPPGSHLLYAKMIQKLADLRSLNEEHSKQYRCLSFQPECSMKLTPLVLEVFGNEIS
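Inhibition of the VDR/SRC2-3 peptide interaction is quantified by fluorescence polarization. Compounds (23 nl, pintool) incubate with the reagents for 2 hours at ambient room temperature.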
An asterisk follows results filed as active; ? = inconclusive; & = joins results of further samples; [ ] = another dose, or the depositor's remark. % is scaled to controls: 0 for no effect and ±100 for the full control effect; potency is read from the fitted curve at half-maximal effect. Some of the compounds tested. The share of hits here may be higher or lower than overall.

#	VDR inh	SMILES
1	-15%	O=C(N/C(=C/c1ccc(Br)cc1)C(=O)N1CCOCC1)c1ccc(Br)o1
2	18%	COc1ccc(/C=N/c2oc(-c3ccccc3)cc2C#N)cc1OC
3	13%	COc1ccc(CNC(=O)C2CCN(S(=O)(=O)c3ccc4c(c3)NC(=O)C(C)S4)CC2)cc1 (centres undefined)
4	-13%	O=C/C(=C\Nc1ccccn1)c1nc2ccccc2o1
5	0%	CCOC(=O)CNc1cccc(C(F)(F)F)c1
6	2%	COc1ccccc1OCC(=O)NCC(C)NC(=O)COc1ccccc1OC (centres undefined)
7	18%	Cc1ccccc1NC(=S)NCc1ccc(F)cc1
8	15%	Cc1ccc(NC2c3ncccc3C(=O)N2Cc2cccs2)cc1C (centres undefined)
9	7%	O=C(c1ccco1)n1nc(-c2ccc(Cl)cc2)nc1NCc1ccc(F)cc1
10	10%	O=C(CN(c1ccccn1)S(=O)(=O)c1ccccc1)Nc1ccccc1
11	1%	O=C(Nc1nc2n(n1)C(c1ccccc1)C=C(c1ccccc1)N2)c1ccccc1 (centres undefined)
12	5%	Brc1ccc(CSc2ncn[nH]2)cc1
13	5%	CC(=O)N(Cc1cccnc1)c1nc2c(F)cc(F)cc2s1
14	1%	CN(C)c1ccc(C(=O)c2ccccc2C(=O)O)c(O)c1
15	-9%&0%&4%	NS(=O)(=O)c1cc2c(cc1Cl)NC(C1CC3C=CC1C3)NS2(=O)=O (centres undefined)
16	-28%	C=C1CCC[C@]2(C)C[C@H]3OC(=O)C(CNC(C)CCCC(C)C)[C@H]3CC12 (some centres undefined)
17	35%[activator]	COc1ccc(N(CC(=O)NCCc2ccc(S(N)(=O)=O)cc2)S(=O)(=O)c2c(C)noc2C)cc1
18	19%	COc1ccc(S(=O)(=O)N2CCCCCC2)cc1NC(=O)CN(C)Cc1ccc2c(c1)OCO2
19	-8%	COc1cc(SC)ccc1C(=O)Nc1ccon1
20	-13%	COCCN(C/C=C/c1ccccc1)C/C=C/c1ccccc1
21	9%	O=C(CSc1nnc(CCc2nc3ccccc3[nH]2)n1-c1ccccc1)NCc1ccccc1
22	-14%	COc1ccccc1C(=O)Nc1ncc2c(n1)CC(c1ccco1)CC2=O (centres undefined)
23	6%	CC(=O)Nc1ccc(S(=O)(=O)N2CCC(N3CCN(Cc4ccc(C)cc4)C(=O)C3=O)CC2)cc1
24	7%	COc1ccc(-n2nnnc2SCC(=O)N2CCCc3ccccc32)cc1OC
25	-1%	CCCCCCCCNCCS(=O)(=O)NC1CCCCC1
26	10%	Cc1cc(-n2c(SCC(=O)NCc3cccs3)nc3n[nH]c(C)c3c2=N)ccc1Cl
27	-4%	CCn1nnc(-c2ccccc2NS(=O)(=O)c2ccc(S(=O)(=O)N3CCCCCC3)cc2)n1
28	6%	CCOCCOC(=O)c1cccc(NC(=O)OCC)c1
29	-8%	COCCSc1ccccc1C(=O)Nc1cc(C)cc(C)c1
30	5%	CCOC(=O)N1CCN(CC(=O)Nc2nc3ccc(OC)cc3s2)CC1
31	3%	CCc1oc2c(C)c(O)ccc2c(=O)c1-c1ccc2ccccc2n1
32	23%	Cc1ccc(-n2c(SCC(=O)c3ccccc3)nc3c([nH]c4ccccc43)c2=O)cc1
33	12%	O=C(Cn1nnc2ccccc2c1=O)N1CCOCC1
34	14%	CCOc1ccc(C(=O)O/N=C(\N)c2ccccn2)cc1OCC
35	-23%	O=C1OC(Nc2ccc(F)cc2F)c2ccccc21 (centres undefined)
36	10%	Cc1cc(OC(=O)c2c(F)cc(F)cc2F)nc(C)n1
37	-9%	CNC(=O)c1nc(C)c(C2(C)CC(c3cccc([N+](=O)[O-])c3)=NO2)s1 (centres undefined)
38	-1%	CS(=O)(=O)N1CCN(S(=O)(=O)c2ccccc2[N+](=O)[O-])CC1
39	4%	COc1cc2[nH]c(=O)n(CCCCCC(=O)N3CCN(c4ccccn4)CC3)c(=O)c2cc1OC
40	0%	Cc1ccc(S(=O)(=O)c2nc(-c3ccccc3F)oc2N2CCCCC2)cc1

A few values from the results shown:
VDR inh, Cc1cc(OC(=O)c2c(F)cc(F)cc2F)nc(C)n1 : 10%
VDR inh, CNC(=O)c1nc(C)c(C2(C)CC(c3cccc([N+](=O)[O-])c3)=NO2)s1 (centres undefined) : -9%
VDR inh, O=C1OC(Nc2ccc(F)cc2F)c2ccccc21 (centres undefined) : -23%

(listing goes on)
#	VDR inh	SMILES
41	-4%	CC1=NN(S(=O)(=O)c2ccc(Cl)cc2Cl)C(=O)c2ccccc2O1
42	-7%	CCCCN(c1ccccc1)c1ncnc2c1cnn2-c1cccc(C)c1
43	-15%	O=C(O)c1cccc(NC(=S)NC(NC(=O)c2cccc([N+](=O)[O-])c2)C(Cl)(Cl)Cl)c1 (centres undefined)
44	9%	COc1ccc(CCNC(=O)CCn2c(=O)c3ccccc3n(CC(=O)Nc3cc(Cl)ccc3C)c2=O)cc1OC
45	2%	O=C(c1ccc(OC2CCN(Cc3ccccc3C(F)(F)F)CC2)cc1)N1CCCCC1
46	-4%	CCC(CC)C(=O)c1c[nH]c(C(=O)NCC2CCCO2)c1 (centres undefined)
47	-12%	O=C(Nc1ccnn1C1CCN(C/C=C/c2ccccc2)CC1)c1ccccc1Cl
48	?	Brc1ccc(C2=Nn3c(Cn4nnc5ccccc54)nnc3SC2)cc1
49	2%	Oc1ccc(Nc2ncnc3c2oc2ccccc23)cc1
50	-12%	COC(=O)C(NS(=O)(=O)c1cccc(S(=O)(=O)NC(C(=O)OC)c2ccccc2)c1)c1ccccc1 (centres undefined)
51	3%	COc1ccc(CCNC(=O)CN2C(=O)c3ccccc3C2=O)cc1
52	-1%	COCCN(C(=O)CSc1nnc(C)n1Cc1ccccc1)c1c(N)n(Cc2ccccc2)c(=O)[nH]c1=O
53	-8%	CCOC(=O)c1ccccc1NC1CC(=O)N(c2ccccc2C)C1=O (centres undefined)
54	-9%	O=C(O)CC/C(=N\Nc1ccccc1[N+](=O)[O-])c1cccs1
55	8%	CCOC(=O)/C(C#N)=C\C1=C(N2CCCC2)CC(C)(C)OC1
56	2%	O=C(CSc1nnc(-c2ccccc2)o1)Nn1cnnc1
57	-6%	COc1ccc(-n2nc(C(=O)NCC(=O)N(C)Cc3ccccc3)c3ccccc3c2=O)cc1
58	-2%	CCCCCCCC(=O)OCCOC(=O)CCCCCCC
59	125%[activator]	O=C1N(CN2CCOCC2)c2ccccc2C12OCC(CCl)O2 (centres undefined)
60	2%	Cc1cnc(NC(=O)c2cncc(Br)c2)s1
61	-1%	CCCc1ccc(-c2cc(N)n[nH]2)cc1
62	-10%	Cc1cc(C)n(C(C)Sc2ccccc2)n1 (centres undefined)
63	3%	CCOC(=O)C1NN=C(C(=O)c2ccccc2)C1c1ccccc1 (centres undefined)
64	-1%	Cc1cccc(N2CCN(CCCNc3ncnc4onc(-c5ccc(Cl)cc5)c34)CC2C)c1 (centres undefined)
65	-7%	COc1ccccc1C(=O)Nc1ccc(NC(=O)C2CCCCC2)nc1
66	-11%	Cc1ccc(NC(=O)C(C)NC(=O)OCc2ccccc2)cc1C (centres undefined)
67	17%	CCc1ccc(NC(=O)c2cc3sc(Cl)cc3n2C)cc1
68	-19%	Cc1[nH]c2ccc(C(=O)OCC(=O)NC3(C#N)CCCCC3)cc2c1C
69	0%	CC1CCN(C(=O)Cn2nnc(-c3ccc(C(C)C)cc3)n2)CC1
70	2%	COc1cc(Cl)ccc1OCc1cc(C(=O)NCCCN2CCCC2=O)no1
71	-24%	CC(O)CN1CCN(C(=O)CN2C(=O)NC(c3ccccc3)(c3ccccc3)C2=O)CC1 (centres undefined)
72	?	CCN(CC)S(=O)(=O)c1cc(NC(=O)c2ccc(Br)s2)ccc1C
73	-8%	CCOc1ccc(N(CC(=O)NCCSc2ccccn2)S(=O)(=O)c2ccc(Cl)cc2)cc1
74	-20%	CC(C)CC(=O)NC(=S)NCc1ccccc1
75	-8%	CC(C)C(=O)NC(=S)Nc1ccc(S(=O)(=O)NC(C)(C)C)cc1
76	-7%	COc1cc2ccc(=O)oc2c(O)c1OCC=C(C)C
77	-17%	COc1cc(C(=O)Nc2ccc3c(c2)Cc2cc(NC(=O)c4cc(OC)c(OC)c(OC)c4)ccc2-3)cc(OC)c1OC
78	-2%	O=C(NCc1cccnc1)c1ccc(NS(=O)(=O)c2ccc(F)cc2)cc1
79	-3%	COc1cccc(N(C(=O)C2CSC(=O)C2)C(C(=O)NC(C)(C)C)c2ccncc2)c1 (centres undefined)
80	18%	O=C(Nc1cccc(F)c1)c1cc(S(=O)(=O)NCCC2=CCCCC2)ccc1F

Four of these compounds, set out differently.
77. COc1cc(C(=O)Nc2ccc3c(c2)Cc2cc(NC(=O)c4cc(OC)c(OC)c(OC)c4)ccc2-3)cc(OC)c1OC
  VDR inh: -17%

78. O=C(NCc1cccnc1)c1ccc(NS(=O)(=O)c2ccc(F)cc2)cc1
  VDR inh: -2%

79. COc1cccc(N(C(=O)C2CSC(=O)C2)C(C(=O)NC(C)(C)C)c2ccncc2)c1 (centres undefined)
  VDR inh: -3%

80. O=C(Nc1cccc(F)c1)c1cc(S(=O)(=O)NCCC2=CCCCC2)ccc1F
  VDR inh: 18%

Carrying on:
#	VDR inh	SMILES
81	2%	COc1ccc(C)cc1NC(=O)CN(C)S(=O)(=O)c1cccs1
82	11%	N#Cc1ccc(NC(=O)N2CCC(c3nc4c(nnn4Cc4cccc(Cl)c4)c(=O)[nH]3)CC2)cc1
83	0%	COc1ccc(NC(=O)CSc2nnc(-c3ccc(OC)cc3)s2)cc1
84	0%	Cc1ccsc1/C=N\NC(=O)CC(=O)NCc1ccccc1
85	4%	CC(C)(C)c1ccc(C(=O)O)c(C(=O)c2ccccc2)c1
86	0%	Cn1c(SCC(=O)N2CCCc3ccccc32)nnc1-c1ccccc1
87	19%	CC1CC(C)CN(C(=O)CCC(=O)Nc2nnc(C(C)C)s2)C1 (centres undefined)
88	-14%	CCc1sc(-c2cc3ccc(O)cc3oc2=O)nc1-c1ccc(C)cc1
89	35%[activator]	O=C(Nc1cc2c(ccc3ccccc32)oc1=O)C1CCCCC1
90	-10%	CCn1c(C(=O)NC2CCC(C)CC2)cc2sccc21 (centres undefined)
91	-12%	COc1ccc(C(=O)NC2(C(F)(F)F)N=C3SCCN3C2=O)cc1 (centres undefined)
92	-14%	Cc1ccc(S(=O)(=O)N(C)c2ccc(OC(=O)CN3C(=O)NC4(CCCC4)C3=O)cc2)cc1C
93	-8%	CC1CCN(C(=O)CSc2nc3[nH]ncc3c(=O)[nH]2)CC1
94	-5%	Cc1ccc2c(c1)NC(=O)C(CC(=O)Nc1ccc(CN3CCC(C)CC3)cc1)O2 (centres undefined)
95	5%	CCOC(=O)Nc1ccc2c(c1)N(C(=O)CCCl)c1ccccc1[S@]2=O
96	-2%	Cc1ccc(COc2coc(CO)cc2=O)cc1

Five of the compounds above, bar-delimited.
No. | canonical_smiles | VDR inh
89 | O=C(Nc1cc2c(ccc3ccccc32)oc1=O)C1CCCCC1 | 35%[activator]
93 | CC1CCN(C(=O)CSc2nc3[nH]ncc3c(=O)[nH]2)CC1 | -8%
90 | CCn1c(C(=O)NC2CCC(C)CC2)cc2sccc21 (centres undefined) | -10%
94 | Cc1ccc2c(c1)NC(=O)C(CC(=O)Nc1ccc(CN3CCC(C)CC3)cc1)O2 (centres undefined) | -5%
96 | Cc1ccc(COc2coc(CO)cc2=O)cc1 | -2%

New compounds follow:
#	VDR inh	SMILES
97	14%	Cc1cc(Br)ccc1NC(=O)C1CCN(S(=O)(=O)c2cnc[nH]2)CC1
98	-15%	COCCN(C(=O)C(F)(F)F)C(C(=O)NC1CCCCC1)c1ccco1 (centres undefined)
99	1%	CCC(=O)OCC(=O)C1(OC(=O)CC)C(C)CC2C3C(Cl)CC4=CC(=O)C=C[C@@]4(C)C3C(O)C[C@@]21C (some centres undefined)
100	-2%	O=C(CNS(=O)(=O)c1ccc(F)cc1)N1CCN(c2ccccc2)CC1
101	-6%&3%	CCOc1ccc(-n2c(SCC(=O)NCc3ccco3)nc3c([nH]c4ccccc43)c2=O)cc1
102	4%	Cc1ccccc1NC(=O)c1c2c(nc3ccccc13)CCC2
103	6%	N#Cc1cccc(S(=O)(=O)N2CCN(c3ccnc4cc(Cl)ccc34)CC2)c1
104	22%	CCOC(=O)C1(Cc2ccccc2)CCCN(C(=O)c2ccc(-n3ccnc3)cc2)C1 (centres undefined)
105	-2%&6%&-10%&3%	CCCCCCCC/C=C\CCCCCCCC(N)=O
106	7%	COC(=O)c1ccccc1NC(=O)CN1CCC(NC(=O)c2ccc(C)cc2)CC1
107	7%	CC(=O)Nc1ccc(C(=O)N2CC(=O)NC(=O)C2)cc1
108	-9%	CCOc1ccc(N2CC(C(=O)Nc3cc(C)on3)CC2=O)cc1 (centres undefined)
109	-25%	CC(C)(C)NC(=O)Nc1ccc(F)c(Cl)c1
110	-16%	COc1ccc(-c2nc(CS(=O)CC(=O)NC3CCCCC3C)c(C)o2)cc1OC (centres undefined)
111	-1%	Cc1noc(C)c1CSc1nnc2scc(-c3ccccc3)n12
112	?	CN(Cc1ccco1)c1ncncc1-c1cccc(C#N)c1
113	6%	CCc1ccc(OCC(=O)Nc2ccc(S(=O)(=O)Nc3onc(C)c3C)cc2)cc1
114	0%	CN(C)C(CNC(=O)Cc1ccc([N+](=O)[O-])cc1)c1ccccc1 (centres undefined)
115	-3%	NC(=O)c1c(NC(=O)Cn2nc(C(=O)O)c3ccccc3c2=O)sc2c1CCC2
116	6%	Fc1ccc(/C=N/NC2=Nc3cccc4cccc2c34)cc1
117	-20%&5%	O=C(O)CCCn1cc(NC(=O)COc2ccccc2F)cn1
118	7%	CCc1ccc(NC(=O)Cn2cnc3sc(C)c(S(=O)(=O)N4CCN(c5ccccc5OC)CC4)c3c2=O)cc1
119	-12%	Cc1ccc(-c2c[n+](CC(=O)N3c4ccccc4Sc4ccccc43)c3n2CCC3)cc1
120	-9%	CC(=O)N1N=C(c2ccc(C)o2)CC1c1ccc(Br)cc1 (centres undefined)
121	8%	Cc1cc(=O)n2nc(N3CCCC(C(=O)NCc4ccc(F)cc4)C3)sc2n1 (centres undefined)
122	3%	COc1ccc(C(C)=O)cc1CSc1nc2nc(C)cc(C)n2n1
